Menin-MLL FL inh: displaces fluorescein MLL peptide from human menin; Fluorescence polarization, fluorescein-MLL peptide displacement from menin; FP activity change, % at 61.4 µM; 290,000 tested, under 10 active; inconclusive = falling polarisation curve, or a change in total fluorescence; inactive = total fluorescence flat and polarisation flat or rising; no compound was filed as active; the % refers to the polarisation; negative = inhibition;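 further: % of control where 0% means no effect; inhibitors lower the polarisation; unlabelled MLL peptide was the positive control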
ClpP mod: qHTS Assay for Activators of ClpP; actives 1.9% (n = 340,000); Potency, µM (doses to about 57.5 µM), for the others: at the highest dose activity change, negative = active; purified B. subtilis ClpP, FRET peptide cleavage, 20 min; active = well fitted falling curve with a large enough effect; inconclusive = small, poorly fitted or top-dose-only effect; inactive = no such curve, though single readings can be large or run the other way; further: potency means the concentration at half of the fitted maximal effect; the source files actives as falling curves though it sought activators and does not explain the sign; nearly all actives have a fitted effect of over 65% in size; many hits overshoot -100%
Target sequence (P80244 whole entry, looked up): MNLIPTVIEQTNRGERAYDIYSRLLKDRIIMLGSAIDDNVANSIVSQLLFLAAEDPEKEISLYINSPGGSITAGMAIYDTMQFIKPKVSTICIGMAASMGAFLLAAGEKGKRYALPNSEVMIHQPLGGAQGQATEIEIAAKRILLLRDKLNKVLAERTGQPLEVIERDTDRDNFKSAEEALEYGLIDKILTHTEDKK
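Purified B. subtilis ClpP, 10 microg/mL final in Tris/HCl pH8 with KCl, BSA, glycerol and Tween-20, cleaved an Abz/nitrotyrosine-quenched decapeptide. Fluorescence (ex 320, em 430) was read at 0 and 20 min at room temperature. Delta was normalized to 5.8 microM ADEP and DMSO/no-enzyme controls.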
Sfp inh: Sfp phosphopantetheinyl transferase inhibition; Q9F4F7; Biochemical Sfp PPTase activity, qHTS; AID 1490; actives 3.5% (n = 310,000); Potency, µM, for the others: max response, negative = inhibition, actives largely listed as inhibitors; active means well fitted inhibition curve with a large enough effect; inconclusive means small, poorly fitted or top-dose-only effect, or another doubt; inactive means no such curve, though single readings can be large or run the other way;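 further: the enzyme is Sfp with the accession as filed and its product quenches rhodamine fluorescence; potency means the concentration at half of the fitted maximal effect; 0% = enzyme reaction without inhibitor and -100% = no enzyme wells; top concentration of the series not given in the record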
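Buffer: 50 mM Hepes-Na pH 7.6, 10 mM MgCl2, 0.01% Nonidet P-40, 0.01% BSA. Enzyme 15 nM, pre-exposed to compound 15 min; substrates then added and fluorescence change tracked over 30 min.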
D2 potentiator: positive allosteric modulators of human D2 dopamine receptor; potentiation, % (test concentration not listed); actives 0.23% (n = 360,000); P14416; DiscoveRx D2 beta-arrestin cells, luminescence, 90 min; 100% = 57 uM dopamine signal; active = potentiation of 50% or more; inconclusive = 30% to 50%; inactive = 30% or less;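 further: compound concentration not given in the record; tested on top of an EC20 dose of dopamine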
Target sequence (P14416 whole entry, looked up): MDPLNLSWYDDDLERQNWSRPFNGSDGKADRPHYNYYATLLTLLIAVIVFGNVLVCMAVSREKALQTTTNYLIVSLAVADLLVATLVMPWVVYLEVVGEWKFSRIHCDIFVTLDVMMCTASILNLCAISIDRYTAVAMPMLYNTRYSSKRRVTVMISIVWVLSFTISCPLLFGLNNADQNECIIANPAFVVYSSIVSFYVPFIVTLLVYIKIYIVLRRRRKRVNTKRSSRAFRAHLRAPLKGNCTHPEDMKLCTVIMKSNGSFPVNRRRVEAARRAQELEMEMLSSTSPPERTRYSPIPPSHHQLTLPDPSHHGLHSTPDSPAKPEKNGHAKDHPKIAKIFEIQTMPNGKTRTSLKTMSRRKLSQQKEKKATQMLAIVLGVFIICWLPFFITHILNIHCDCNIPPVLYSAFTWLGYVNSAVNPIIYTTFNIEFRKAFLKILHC
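PathHunter D2 cells, attached overnight at 37 deg C, received compound in DMSO plus dopamine at EC20 (50 nM final) for 90 min at 37 deg C. Beta-arrestin recruitment was read as luminescence after 1 h with detection reagent at ambient temperature.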
TRPV1 potentiator: human TRPV1 potentiation | TRPV1-expressing cells, Fluo-8 calcium influx, capsaicin EC20 potentiation; host cell line not named in the record; control for the full effect not named in the record | potentiation, % at 8.33 µM | actives 0.02% (n = 320,000) | AID 540277; active means potentiation above 80%; inconclusive means 30% to 80%; inactive means below 30%; further: 0% is about no effect
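TRPV1-expressing cells were cultured overnight at 35.5C and loaded with Fluo-8 calcium dye for 40 to 90 min at room temperature. After a 10 s baseline, compound was added and calcium influx was read kinetically for 3 min (ex 480/em 520 nm).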
gsp antag: antagonizes gsp, the McCune-Albright syndrome mutation; AID 624288; Potency, µM (series often up to 76.9 µM), without a hit: at the top dose activity change, negative = inhibition, usual class: inhibitors; actives 0.4% (n = 340,000); gsp-mutant cells, cAMP HTRF, 30 min; control for the full effect not named in the record; active = falling curve of any shape with a large fitted effect; inconclusive = falling curve, mostly with a smaller effect; inactive = flat or rising curve; cell line not stated here;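 further: intracellular cAMP measured with PDE inhibitor Ro 20-1724 present during compound exposure; potency means the concentration at half of the fitted maximal effect; on the % scale 0 is the no-effect control and ±100 the full control effect; nearly all actives have a fitted effect of over 65% in size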
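Cells, 2000/well, grown 16–24 h in DMEM 10% FBS with 0.5 mg/ml G418, then compounds plus […] (300 uM addition stock), 30 min at 37C. cAMP read by HTRF (cAMP-d2 and anti-cAMP antibody-K in lysis buffer) after 30 min RT.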
gsp ag: activates gsp, the McCune-Albright syndrome mutation. Potency, µM (series often up to 76.9 µM), for the others: at the highest dose activation (cAMP increase), actives largely listed as activators. gsp mutant cells, cAMP HTRF, 30 min; control for the full effect not named in the record. AID 624287. actives 0.13% (n = 340,000); active = well fitted activation curve with a large enough effect; inconclusive = small, poorly fitted or top-dose-only effect, or another doubt; inactive = no such curve, though single readings can be large or run the other way; cell line not stated here;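 further: phosphodiesterase inhibitor Ro 20-1724 added with compounds to block cAMP breakdown; potency means the concentration at half of the fitted maximal effect; nearly all actives have a fitted effect of over 60% in size; about a fifth of the inactives were tested at one dose only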
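Cells in DMEM/10% FBS with G418 were pretreated with compounds in DMSO plus […] (300 uM stock) for 30 min at 37C. cAMP was measured by HTRF (cAMP-d2 plus anti-cAMP antibody-K) after 30 min at room temperature.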
* marks the source's active call; other numbers are inactive results; i = inactive; ? = inconclusive; · = no result given; [ ] = dose if it differs, or a comment.

SMILES	Menin-MLL FL inh	ClpP mod	Sfp inh	D2 potentiator	TRPV1 potentiator	gsp antag	gsp ag
O=C(NC1CCN(Cc2ccccc2)C1)c1cc(S(=O)(=O)N2CCOCC2)ccc1Cl (stereo not given)	·	-0.5%	·	-18	-24	3%	?
COc1cc2ccccc2cc1C(=O)N1CCCC(C(F)(F)F)C1 (stereo not given)	·	-16%	·	-9	-5	9%	-42%
CCN(CC)CCNC(=O)c1ccc(NC(=O)c2ccc(F)cc2F)cc1	3.4	·	-15%	-9	7	12%	-28%
Cc1ccc(C)c(NS(=O)(=O)c2cc(C(=O)N3CCCC3)ccc2Cl)c1	2.3	·	14%	-5	-4	-11%	1%[15.4 µM]
O=C1[C@H]2[C@@H](c3ccc(Cl)cc3)N3C(=O)N(c4cccc(Br)c4)C(=O)[C@@]3(Cc3ccc(Cl)cc3)[C@H]2C(=O)N1C1CCCCC1	-4.1	1.0%	15%	-14	0	-4%	·
O=C(O)c1ccccc1SCC(=O)N1CCc2ccccc21	0.5	-2.8%	13%	-2	-1	5%	-32%[15.4 µM]
COc1cccc(-c2nc3n(n2)C(c2cccs2)C(C(=O)Nc2cccnc2)=C(C)N3)c1 (stereo not given)	6.4	-4.5%	-7%	-1	?	2%	-53%
CCOC(=O)c1nc(NCc2ccccc2)sc1C	2.8	·	8.9µM*	-5	29	5%	-4%[15.4 µM]
O=S(=O)(O)Sc1ccccc1	·	-2.5%	·	-19	·	·	-4%
COCCNc1nc(SC)nc2sc3c(c12)CCN(C)C3	-15	3.4%	0%	-7	2	-9%	4%
CCCCN(CCCC)CC(O)Cn1c2ccccc2c(=O)c2ccccc21 (stereo not given)	1.7	·	12%	0	2	0%	13%
O=C(CCCN1C(=O)c2cccc3cccc(c23)C1=O)OCC(=O)N1CCCCC1	·	4.1%	·	-4	·	·	-16%
CCCN(CCC)C(=O)CC(c1ccccc1)C1CCOC(C)(C)C1 (stereo not given)	1.2	0.3%	3%	-1	-7	-9%	?
Cc1nn(-c2ccccn2)c2c1-c1nc(N3CCOCC3)ncc1CC2	-9.5	2.5%	45µM*	-11	0	-2%	10%
Cc1cccc(NC(=O)Nc2nnc(-c3ccccc3)o2)c1	0.7	·	13%	-2	-3	8%	-35%[inhibitor]
CS(=O)(=O)N1CCN(C(=O)Cc2ccccc2Cl)CC1	1.2	·	19%	-10	2	5%	2%
COCCNC(=S)N/N=C(\C)c1ccccc1F	-2.2	·	0%	-9	8	·	-7%[15.4 µM]
O=C(NNC(=S)Nc1cccc(C(F)(F)F)c1)c1ccncc1	·	0.7%	·	-27	·	·	4%
CCN1CCN(S(=O)(=O)c2ccc(Cl)c(C(=O)N(CCc3ccccc3)Cc3ccccc3)c2)CC1	·	-0.4%	·	-24	·	-20%	9%
COc1ccc(NC(=O)c2cccn(CC=C(C)C)c2=O)cc1	-0.4	·	11%	-2	-26	-12%	18%[15.4 µM]
Cc1ccc(NC(=O)c2cc(=O)n(Cc3ccccc3)c(=O)[nH]2)cc1C	3.5	·	-20%	-5	2	-19%	-1%[15.4 µM]
COC(=O)c1[nH]c2ccc(C)cc2c1NS(=O)(=O)c1ccc(F)cc1	3.3	-17%	-7%	-1	5	7%	-1%
CC(=O)C1=C(C)NC(SCC(N)=O)=C(C#N)C1C (stereo not given)	-3.7	0.2%	40µM*	-7	-6	0%	21%
Cc1ccc(C(=O)NC(=O)CSc2nnc(C)s2)cc1	·	2.1%	9%	-10	11	12%	1%
COCCC(=O)Nc1ccc2c(c1)CN(C(=O)c1ccc(CSC)o1)CC2	-1.1	·	1%	-4	-3	1%	?
The list continues:
SMILES	Menin-MLL FL inh	ClpP mod	Sfp inh	D2 potentiator	TRPV1 potentiator	gsp antag	gsp ag
O=C(O)c1cccc(S(=O)(=O)N2CCC(Cc3ccccc3)CC2)c1	-0.4	?	0%	-11	19	?	14%[15.4 µM]
Cn1c(=O)c2c(nc(Oc3ccc4ccccc4c3)n2C)n(C)c1=O	2.7	-0.3%	10%	-2	2	-13%	-4%
COc1ccc(OC)c(C2=Nn3c(nnc3-c3cccc(OC(C)C)c3)SC2)c1	1.7	0.3%	?	-14	-10	0%	13%
OCCCc1nc2n(n1)C(c1ccccc1)C=C(c1ccc(F)cc1)N2 (stereo not given)	?	?	-5%	10	9	-5%	10%
Cc1ccc(C2(CCNCc3ccc(N(C)C)cc3)CCOC(C(C)C)C2)cc1 (stereo not given)	-0.4	-2.0%	14%	-3	-16	-6%	0%[15.4 µM]
CCc1nnc(NS(=O)(=O)c2ccc(NC(=O)c3ccco3)cc2)s1	-0.3	-4.5%	10%	-9	0	1%	13%
O=C(NC1CCC(O)CC1)c1cc(-c2ccco2)nc2ccccc12 (stereo not given)	?	4.2%	18µM*	-32	8	18%	?
O=C(CCNC(=O)c1ccco1)NCCN1C(=O)S/C(=C\c2ccc(F)cc2)C1=O	·	-3.0%	·	10	15	-13%	1%
CN1CCC(=NNC(=O)CN(c2ccc(Oc3ccccc3)cc2)S(C)(=O)=O)CC1	4.7	-2.3%	13%	-11	6	8%	-17%
CCCCCCCNC(=O)C1(CC2CC(c3cccc(Br)c3)=NO2)CCN(C(=O)c2ccccc2)CC1 (stereo not given)	·	-0.3%	·	-8	-21	-6%	-1%
COc1cc(/C=C2\C(=O)NN(c3ccc(C)cc3)C2=O)cc([N+](=O)[O-])c1O	3.2	·	-11%	-28	8	·	2%[15.4 µM]
O=C(NCC1CCCO1)c1ccc(COc2ccc(F)cc2)o1 (stereo not given)	2.0	-0.4%	7%	-11	?	-2%	27%
Cc1ccc(Cn2c(=O)c3c(ncn3C)n(C)c2=O)cc1	2.6	-0.1%	5%	1	-16	3%	4%[15.4 µM]
S=C(c1ccc(-c2ccccc2)o1)N1CCCCC1	-1.0	?	8.9µM*	-31	-31	4%	7%[15.4 µM]
CN(CC(=O)Nc1ccccc1C(=O)N1CCCC1)S(=O)(=O)c1ccc(Cl)cc1	-0.3	-2.2%	9%	0	7	5%	-3%
COc1ccc(S(=O)(=O)N(CC(=O)N/N=C/c2cccs2)c2ccc(C)cc2)cc1OC	-2.1	-0.4%	8%	2	5	-7%	6%
COc1ccc(Cl)cc1S(=O)(=O)N1CCC(C(=O)NCC2CCCO2)CC1 (stereo not given)	18	0.8%	4%	-14	6	-1%	?
CCCOc1ccc(/C=N/Nc2ccccn2)cc1OC	0.2	·	?	-1	1	4%	-18%[15.4 µM]
O=C(c1cc(COc2c(F)cccc2F)on1)N1CCC(c2ccccc2Cl)C1 (stereo not given)	2.0	·	-11%	-14	-19	-13%	-4%[15.4 µM]
CC(C(=O)O)n1cnc2sc3c(c2c1=O)CCCC3 (stereo not given)	1.8	·	22%	0	5	-1%	-25%
CCOC(=O)C1=C(C)Nc2nc(C)nn2C1c1ccc(OCC)c(OC)c1 (stereo not given)	1.1	-1.2%	10%	-4	0	7%	-35%[inhibitor]
CCCCN(C)C(=O)C1CCC(CNS(=O)(=O)c2ccc3c(c2)CC(C)N3C(=O)C2CC2)CC1 (stereo not given)	·	0.2%	10%	-9	-3	-18%	-39%[inhibitor]
O=S(=O)(NCC(c1cccs1)N1CCc2ccccc2C1)c1ccccc1 (stereo not given)	·	·	·	-8	13	-14%	-13%[15.4 µM]
O=C(O)C1C2C=CC(C2)C1C(=O)NCc1ccccn1 (stereo not given)	0.7	·	12%	·	1	·	·
COc1cc2[nH]c(Cl)c([N+](=O)[O-])c2cc1OC	-9.5	·	89µM*	15	11	-8%	11%[15.4 µM]
(listing goes on)
SMILES	Menin-MLL FL inh	ClpP mod	Sfp inh	D2 potentiator	TRPV1 potentiator	gsp antag	gsp ag
NC(=S)NN=C1CCC2(CCCCC2)CC1	·	-4.7%	·	-29	·	2%	6%[15.4 µM]
Cc1c(NC(=O)COC(=O)CSc2ccc([N+](=O)[O-])cc2)c(=O)n(-c2ccccc2)n1C	·	-1.1%	·	-13	6	-6%	-2%
O=C(Nc1ccc(Cl)cc1)NC1(C(=O)NCCCN2CCOCC2)CCCCC1	-0.6	0.4%	2%	-8	-4	7%	-57%[inhibitor]
COC(=O)CSc1nc2c(c(=O)n(C)c(=O)n2C)n1CCC(C)C	-20	-4.1%	-23%	-10	-20	9%	27%
CCCC[C@]12Cc3cc(C#N)ccc3C(O1)c1c(cc(C)n(Cc3ccccc3)c1=O)O2	5.1[11.7 µM]	·	5%	·	i	·	·
C[C@@H]1CN([C@@H](C)CO)C(=O)CCCn2nncc2CO[C@@H]1CN(C)C(=O)c1ccc(N2CCN(C)CC2)cc1	·	-4.7%	·	5	·	·	10µM*
O=C(O)CCC(=O)NNC(=O)CCCOc1ccc(Cl)cc1Cl	-1.2	-8.0%	10%	6	-3	0%	-39%[inhibitor]
COC(=O)/C=C1\SC(N)=NC1=O	4.3	0.5%	12%	3	0	7%	23%
CCN(C(=O)c1cccs1)c1nnc(-c2ccncc2)s1	1.5	72%	14%	28	-6	-14%	-4%
Cc1ccc(C)c(NC(=S)NNC(=O)c2sccc2C)c1	1.5	13%	7%	-21	27	-4%	-10%
CCCc1ccc2oc(C(=O)NCc3nnc(C)o3)c(C)c2c1	·	4.1%	2%	-9	-14	0%	28%
COc1ccc(NC(=O)CN2C(=O)C(C)Oc3ccc(C)cc32)cc1 (stereo not given)	-1.0	-2.4%	6%	-2	10	1%	5%[15.4 µM]
CC(=O)c1c(O)c(C)c(-c2ccccc2)n(-c2ccccc2)c1=O	4.0	22µM*	7%	3	-11	15%	-14%
O=C(Nc1ccccc1)c1ccc(NCCN2C(=O)CCC2=O)c([N+](=O)[O-])c1	3.4	·	-7%	-11	3	·	-8%[15.4 µM]
CCCCNC(=O)c1cn(CC)c2cc(N3CCN(C(=O)c4ccco4)CC3)c(F)cc2c1=O	0.0	4.3%	2%	-17	1	?	0%
Cc1ccc(S(=O)(=O)/N=C(/Nc2ccc(F)cc2F)c2ccc(F)cc2)cc1	·	-1.4%	22%	-6	-16	8%	-1%
Clc1ccc(/C=N\Nc2ccccc2)cc1	1.6	1.7%	11%	-10	-5	9%	12%
CC1(c2ccc(Cl)c(Cl)c2)NC(=S)N2C1NC(=S)N2c1ccccc1 (stereo not given)	-0.9	-0.9%	-3%	-7	-7	3%	14%[15.4 µM]

Assay outcomes deposited in PubChem by National Center for Advancing Translational Sciences (NCATS).
